T cruzi repl: inhibitors of intracellular T. cruzi growth, primary screen, luminescence, NIH3T3 host cells. actives 1.4% (n = 300,000). inhibition, % (no concentration beside the values). T. cruzi beta-gal in NIH3T3, 90 h. AID 1885, 2009;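 active = mean inhibition across valid replicates above about 55%, limit read from the data; inconclusive = mean below that limit but half or more replicates reach it; inactive = mean below it, under half of replicates reach it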;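 also: signal also drops with host cell toxicity which is not excluded here; 0% = plate median of DMSO wells and 100% = zero luminescence signal; higher percent means less beta-gal luminescence so fewer parasites; stock transfer was 50 nL into about 50 µL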
Calb FLC: C. albicans growth inhibition with fluconazole, primary screen, CaCi-2 strain, Alamar Blue fluorescence | AID 1979, 2009 | actives 0.57% (n = 300,000) | growth inhibition, % (test concentration not listed) | C. albicans CaCi-2 (fluconazole-resistant clinical isolate) + fluconazole, 48 h;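 active = most replicates above 75%; inconclusive = exactly half above 75%; inactive = most below 75%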;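 also: all wells also contain fluconazole at 8 µg/ml as a sub-toxic cotreatment; 0% = median of DMSO wells and 100% = median of geldanamycin control wells; wells of about 8 µL received 7.5 nL stock; the first replicate is given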
A1 inh: caspase 3/7 activation in MEF A1-2A-BIM cells, primary screen, A1 inhibitor project, cell-based, luminescence, HTS | caspase activation, % (no concentration beside the values) | Caspase-Glo 3/7 luminescence, 3 h; percent of clofoctol response, vehicle zero | actives 0.066% (n = 330,000);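 active = over half of replicate activation scores above 10%, or exactly half above 10 with the replicate mean above 10; inconclusive = replicate mean below 10 yet half the replicates above 10; inactive = over half of replicates below 10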;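 also: wells of about 30 µL received 50 nL stock; many hits fall short of the cut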
LANA-H2A inh: blockers of LANA interaction with H2A/H2B – biochemical, FP readout, HTS, primary screen. cell-free LANA-H2A/H2B peptide, fluorescence polarization. inhibition, % (concentration not given with the values). actives 0.6% (n = 320,000). AID 2629, 2010; in the data active = inhibition mostly above about 10%, no sharp cut-off; inactive = mostly below about 6.7%;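 also: stock transfer was 7.5 nL into about 10 µL; 0% = median of vehicle wells and 100% = median of positive control wells; one replicate is shown; the record names a cut of 25% in any replicate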
UCH37 inh: inhibitors of human UCH37 deubiquitinase, primary screen, biochemical, Ub-AMC cleavage, fluorescence. Ubiquitin carboxyl-terminal hydrolase isozyme L5 (Homo sapiens), Q9Y5K5. purified proteasome/UCH37. inhibition, % (test concentration not listed). actives 0.33% (n = 330,000). AID 588478, 2011;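 active = mean of two replicates above 20%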;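 also: 0% = compound-free wells with enzyme and 100% = wells lacking proteasome; stock transfer was 100 nL into about 20 µL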
Target sequence (Q9Y5K5 whole entry, looked up): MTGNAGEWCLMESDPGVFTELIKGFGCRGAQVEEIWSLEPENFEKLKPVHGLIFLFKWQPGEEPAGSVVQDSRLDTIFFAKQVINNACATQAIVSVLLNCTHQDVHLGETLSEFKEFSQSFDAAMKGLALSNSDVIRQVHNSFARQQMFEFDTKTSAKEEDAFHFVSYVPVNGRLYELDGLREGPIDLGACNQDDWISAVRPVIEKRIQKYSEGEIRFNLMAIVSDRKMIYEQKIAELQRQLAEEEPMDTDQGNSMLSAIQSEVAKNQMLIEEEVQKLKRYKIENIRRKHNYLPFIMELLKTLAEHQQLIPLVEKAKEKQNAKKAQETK
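Assay system: Proteasome-bound UCH37. Buffer or medium: pH 7.4 Tris-HCl (50 mM) with ovalbumin, ATP-MgCl2, DTT. Incubation: 30 min preincubation with enzyme, 25 min cleavage at room temperature. Measured by: fluorescence, ex 355 nm, em 460 nm. Read-out basis: percent inhibition. Control set: wells without proteasome as full block, compound-free enzyme plus substrate as uninhibited.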
Beta cell apopt: inhibitors of cytokine-induced beta cell apoptosis, primary screen, luminescence. actives 0.8% (n = 300,000). AID 435005, 2010. protection from apoptosis, % (concentration not given with the values). INS-1E cytokine-induced death, ATP luminescence, 48 h; percent of positive-control rescue, neutral wells zero;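 active = all replicates at 75% or more, or half of them and the mean; inconclusive = half reach 75% but not the mean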;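 also: 0% = cytokine-treated negative control wells and 100% = positive control rescue; higher means more ATP so stronger rescue from cytokine killing; wells of about 40 µL received 100 nL stock; the first replicate is given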
Beta2AR agonist: beta2AR agonists driving receptor internalization, primary screen, cell-based, FAP fluorogen, flow cytometry; Beta-2 adrenergic receptor (Homo sapiens), P07550; Am2.2-beta2AR cells; reference of the scale not given here; response, % (concentration not given with the values); actives 0.43% (n = 340,000); AID 504454, 2011;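 active = response above a set limit, near 3 SD of response in nonfluorescent compounds, cut at about 42% in these data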;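 also: stock transfer was 100 nL into about 11 µL; a reference agonist was the positive control; negative values mostly stem from fluorescent compounds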
Target sequence (P07550 whole entry, looked up): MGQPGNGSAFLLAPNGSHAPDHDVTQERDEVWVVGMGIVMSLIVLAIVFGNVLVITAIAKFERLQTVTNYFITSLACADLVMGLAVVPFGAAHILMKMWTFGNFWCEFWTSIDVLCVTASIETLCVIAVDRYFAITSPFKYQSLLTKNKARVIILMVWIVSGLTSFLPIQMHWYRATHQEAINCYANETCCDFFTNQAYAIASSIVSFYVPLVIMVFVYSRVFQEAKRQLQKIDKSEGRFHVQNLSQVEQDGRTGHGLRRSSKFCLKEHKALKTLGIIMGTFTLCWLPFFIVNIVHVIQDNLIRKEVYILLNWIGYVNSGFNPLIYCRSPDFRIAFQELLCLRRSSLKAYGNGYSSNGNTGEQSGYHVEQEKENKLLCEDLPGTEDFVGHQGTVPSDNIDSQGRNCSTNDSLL
RanGTP-Impb inh: inhibitors of RanGTP-importin-beta interaction, primary screen, biochemical, FRET, CFP-Ran, YFP-importin-beta, homogeneous; cell-free CFP-Ran/YFP-importin-beta FRET ratio; actives 1.1% (n = 300,000); Ran GTPase (GTP-bound) - importin-beta complex; inhibition, % (concentration not given with the values);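 active = most replicates above 15%; inconclusive = exactly half above 15%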;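 also: 0% = DMSO wells and 100% = Ran loaded with GDP instead of GTP; wells of about 40 µL received 100 nL stock; the first replicate is given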
An asterisk follows results filed as active; ? = inconclusive; . = no result given. The order is random; any-hit rate near 4.3%.

Results follow in this order: T cruzi repl, Calb FLC, A1 inh, LANA-H2A inh, UCH37 inh, Beta cell apopt, Beta2AR agonist, RanGTP-Impb inh
Cc1ccc(CN2CCN(CCC(C)C)C(CCO)C2)s1 (stereo not given)
→ 7.5, 2.3, -0.2, 4.1, 4.9, 0.0, 12.1, -2.6
CCOc1ccccc1-n1c(COc2ccccc2)nnc1SCC(N)=O
→ -9.9, -45.3, 0.3, 0.0, 1.8, 0.3, 5.5, 2.4
CC(/C=N/NC(=O)c1nnn(-c2nonc2N)c1C(C)C)=C\c1ccccc1
→ 7.8, 6.1, -0.2, 3.0, ., 6.0, 14.8, -0.8
COc1cc(/C=N/NC(=O)CSc2nc3ccccc3n2C)cc(OC)c1OC
→ 0.3, -9.3, 0.0, -1.3, ., -0.5, 3.6, 5.1
Cn1c(=O)n(CC(=O)OCc2ccccc2)c(=O)c2c1nc1n2CCCN1C1CCCCC1
→ 15.9, -6.7, 0.0, -6.5, -0.7, 4.6, -5.0, ?
Cc1ccc(C)c(NC(=O)CS(=O)(=O)c2cn(C)c3ccccc23)c1
→ -17.0, 2.7, 0.1, 4.1, 4.2, ., 15.1, ?
CC(/C=C/c1cccs1)=C\C(=O)O
→ -2.9, -11.5, 0.3, 5.0, 8.0, -8.4, 3.6, -7.2
COc1ccc(C(CCN(Cc2ccc(OC)c(OC)c2)C(=O)CCl)c2ccccc2)cc1 (stereo not given)
→ 27.4, 3.4, 2.6, -1.7, 3.4, -6.1, -256.9, 0.8
N/C(=N\S(=O)(=O)c1cccs1)c1ccccc1Cl
→ -1.8, -48.3, -0.7, -0.3, 0.1, -7.7, 0.8, 1.9
O=C(NCCCN1CCOCC1)c1ccc2c(=O)n(Cc3ccccc3)c(=S)[nH]c2c1
→ -7.3, -5.4, 0.1, -9.0, 5.3, -0.2, -5.5, 1.5
CCCCn1c(CN2CCN(c3cccc(Cl)c3)CC2)nc2c1c(=O)[nH]c(=O)n2C
→ 10.9, -5.3, 0.3, 1.6, 0.7, -8.3, -9.8, 6.2
Cc1ccc(NS(=O)(=O)c2ccc(Cl)c(C(=O)Nc3cccc(C(=O)O)c3)c2)cc1
→ -5.1, -5.8, 0.7, 4.7, 1.3, -3.5, 4.3, -0.9
CC1(C)Cc2ccccc2-c2nnc(-c3cccc(O)c3)n21
→ -7.4, 5.5, 0.5, 0.3, 6.6, ., 7.4, 0.6
CC[N+](C)(CC)CCC(c1ccccc1)C1CCCCC1 (stereo not given)
→ 9.3, -27.5, -0.5, -2.3, 4.0, 105.5*, -6.1, 0.3
CCCNC(=O)C(Cc1ccc(F)cc1)NC(=O)c1ccccc1 (stereo not given)
→ ., ., 1.1, 11.2, 3.3, -3.1, 10.1, .
O=c1c2ccccc2nnn1Cc1ccccc1
→ -34.4, 6.1, -0.9, 2.5, -1.8, -7.1, -12.7, 4.1
Cc1ccccc1NC(=O)CC1SCCNC1=O (stereo not given)
→ -20.1, 0.5, 0.1, 2.3, -1.9, -7.6, -0.2, -3.6
COc1ccc(S(=O)(=O)N(CCCN2CCOCC2)Cc2ccc(OC)c(OC)c2)cc1
→ 13.7, -22.2, 1.3, 1.1, 4.3, -8.2, -12.7, 6.1
COC(=O)C(NNc1ccccc1)(NC(=O)c1ccc(F)cc1)C(F)(F)F (stereo not given)
→ -8.3, 8.6, -0.1, -2.2, 0.8, -13.5, -3.5, 1.0
Nc1ccc2c(c1)C(=O)N(c1cccc3ccccc13)C2=O
→ -12.7, -69.1, 0.3, -3.0, -14.1, -1.9, 4.3, -16.3
CC(=O)c1sc(NC(=O)c2cc(=O)c3ccccc3o2)nc1C
→ 31.2, -1.6, -6.3, 10.7, 14.6, 11.5, 3.6, ?
O=C(Cn1cncn1)N/N=C/c1cccnc1
→ -6.4, 0.2, 1.7, -6.8, ., 1.1, -3.5, 9.0
Cc1cccc(C(C)(C)C)c1OCCCCN1CCCC1
→ 39.0, ., 0.5, -0.4, 1.6, ., -10.1, 2.4
CC(C)(C)c1ccc(/C=N/NC(=S)NC2CCCCC2)cc1
→ 44.7, -8.5, 0.5, ., ., 20.0, 1.8, -2.0
O=C(C1=C(O)C(=O)N(Cc2ccco2)C1c1ccccc1)c1cccs1 (stereo not given)
→ -5.9, 17.6, -0.9, -1.0, 12.0, 0.8, 2.5, 3.0
COc1cc(OC)c(N(C)S(=O)(=O)c2cccc(C(=O)Nc3nnc(C4CC4)s3)c2)cc1Cl
→ 16.8, ?, ?, 0.3, 0.0, 4.1, -7.1, 4.2
CCc1nnc(NC(=O)CS(=O)(=O)Cc2ccccc2)s1
→ -3.0, -0.3, -0.3, 2.1, 4.9, -7.3, 0.5, 4.8
N#CCNC1CC(=O)N(c2ccccc2)C1=O (stereo not given)
→ -4.9, 8.4, 0.3, -1.3, 3.6, -4.1, 4.7, -1.8
CCCc1cc(=O)[nH]c(SCC(=O)N2CCN(c3ccc(F)cc3)CC2)n1
→ 5.1, 1.8, 0.6, 4.2, 0.2, 1.7, 6.6, 1.1
Cc1cc2n(n1)C(c1ccccc1)Nc1ccccc1-2 (stereo not given)
→ 3.9, 16.1, -0.3, -6.2, -30.4, 1.1, -9.0, .

Compound profiles, from the list above. Screens in order: T cruzi repl	Calb FLC	A1 inh	LANA-H2A inh	UCH37 inh	Beta cell apopt	Beta2AR agonist	RanGTP-Impb inh
Results for `CCc1nnc(NC(=O)CS(=O)(=O)Cc2ccccc2)s1` : -3.0	-0.3	-0.3	2.1	4.9	-7.3	0.5	4.8
Results for `CC(/C=N/NC(=O)c1nnn(-c2nonc2N)c1C(C)C)=C\c1ccccc1` : 7.8	6.1	-0.2	3.0	.	6.0	14.8	-0.8
Results for `CCOc1ccccc1-n1c(COc2ccccc2)nnc1SCC(N)=O` : -9.9	-45.3	0.3	0.0	1.8	0.3	5.5	2.4
Results for `CC[N+](C)(CC)CCC(c1ccccc1)C1CCCCC1` (stereo not given) : 9.3	-27.5	-0.5	-2.3	4.0	105.5*	-6.1	0.3

Going on with the list:
Results follow in this order: T cruzi repl, Calb FLC, A1 inh, LANA-H2A inh, UCH37 inh, Beta cell apopt, Beta2AR agonist, RanGTP-Impb inh
Cc1ccc(NC(=O)C2CCN(S(=O)(=O)c3c(C)noc3C)CC2)cc1C
→ 22.5, -15.6, -0.7, -1.6, -1.9, -0.6, 7.6, 1.6
CCOc1ccccc1NC(=O)C1CCC(=O)N1S(=O)(=O)c1ccc(C)cc1 (stereo not given)
→ -9.1, 7.9, -1.0, 1.8, 0.1, -4.7, 1.7, 2.7
O=C(Cc1cccs1)N/N=C/C=C\c1ccco1
→ -4.3, 2.4, 0.1, -3.4, ., -3.1, -1.5, 6.3
O=C(O)CC(CC(=O)Nc1ccc(-c2ccccc2)cc1)c1ccccc1 (stereo not given)
→ -6.7, -1.5, -0.1, -6.4, 2.2, ., 5.6, 2.6
CCOC(=O)c1cc(C#N)c(N2CCCNCC2)nc1C(F)(F)F
→ 32.0, -26.3, -2.8, 10.5, -4.0, -9.0, -11.5, -0.3
O=C(O)c1ccc(CSc2nnc(-c3ccccc3Br)o2)cc1
→ -8.2, 20.3, -0.5, -5.5, 3.9, -6.6, 6.7, 4.3
COc1cc(OC)cc(C(=O)N[C@H](C(=O)OCC(=O)Nc2ccc(F)c(F)c2F)C(C)C)c1
→ 18.5, 5.9, -0.4, 3.1, 4.6, 0.4, 6.6, 0.2
Cc1ccc(NS(=O)(=O)c2ccc3c(c2)CC(=O)N3)cc1C
→ -10.9, 2.1, 0.2, 0.1, -0.1, 1.0, 9.7, -1.4
CC(C)c1nc(N2CCOCC2)c(C#N)c2c1CCC2
→ 12.8, -10.8, -0.2, -6.0, -51.8, -3.9, 3.5, -1.0
Cc1cccc(NC(=O)CNC(=O)c2sc3ccccc3c2Cl)n1
→ -0.4, ., 0.2, -0.2, 0.7, -2.8, -2.9, -0.1
COc1ccc(NC(=O)c2oc3ccc(S(=O)(=O)N4CCC5(CC4)OCCO5)cc3c2C)cc1
→ -1.3, -0.3, ?, -0.2, 1.3, -1.0, 27.0, -0.9
O=C(NCCCn1ccnc1)C(=O)NCC1OCCN1S(=O)(=O)c1ccc2c(c1)OCCO2 (stereo not given)
→ -6.3, 11.5, 1.9, -0.1, 4.8, -1.1, 18.7, -0.5
C=CCN1C(=O)CSc2ccc(C(=O)NCc3cccs3)cc21
→ -0.6, 7.0, 0.6, -1.5, -0.3, 3.2, 1.7, 4.2
O=S(=O)(NC1CCCCC1N1CCCCC1)c1ccc(Cl)cc1 (stereo not given)
→ -3.5, -7.8, 0.5, 9.8, 0.2, -4.8, -2.9, 2.3
Cc1cn(S(=O)(=O)c2ccc(Br)cc2)cn1
→ -9.2, -2.8, -0.2, 0.0, 1.5, -7.8, 1.0, -2.4
C=CCC1(CC=C)CCCN1C(=O)CC1C(=O)NCCN1Cc1cccc(OC)c1 (stereo not given)
→ 16.8, -19.0, -0.1, 4.4, -2.0, -2.5, -2.1, 5.8
Cc1cccc(NC(=O)CNC(=O)COc2cc(F)ccc2[N+](=O)[O-])c1C
→ -7.3, 9.8, 0.0, -2.5, 3.6, -3.2, -6.4, ?
COc1ccc(CN2CC[C@H]3C=CCc4cccc(c43)C2)cc1
→ ., ., -0.4, 7.0, 3.6, 7.3, -0.9, .
O=C(N/N=C\c1ccc(CNS(=O)(=O)c2ccc(Cl)cc2)o1)C(=O)Nc1ccc(Oc2ccccc2)cc1
→ ., ., 1.3, -134.8, ., 1.5, -14.5, .
O=C(CNC(=O)c1ccc(F)cc1)N/N=C/c1ccc(O)c([N+](=O)[O-])c1
→ -5.1, -2.0, -2.9, 4.0, ., ., 2.0, -3.1
CN(CC(=O)NCCC1=CCCCC1)S(=O)(=O)c1ccc2c(c1)CCC(=O)N2
→ -14.0, -0.3, 0.0, -2.1, 1.5, -1.2, -3.7, 0.7
CC1(C)CC(=O)c2cnn(-c3nc4ccccc4[nH]3)c2C1
→ -4.0, -36.7, 0.3, 2.4, 5.4, -6.5, -15.8, 1.6
Cc1ccc(-c2nc3ccccc3nc2-c2ccccc2)cc1
→ 35.3, 14.1, 0.2, 0.0, -42.4, 4.6, -6.6, 1.9
O=C1CCCN1CCCNC(=S)Nc1ccccc1
→ -2.1, 0.7, 1.5, 0.8, 2.6, ., -1.3, 1.7
CC(=O)Nc1ccc(NCc2ccc(C)s2)cc1
→ -8.0, 4.8, 0.1, -3.1, -1.0, 2.9, -0.9, -1.2
COCCCNC(=O)CN(c1cc([N+](=O)[O-])ccc1OC)S(C)(=O)=O
→ -13.0, 1.5, 0.5, 2.6, 1.5, -3.2, 1.6, ?
CCC1NC(=O)c2ccccc2N1c1cccc(Cl)c1 (stereo not given)
→ -0.6, 33.7, -0.1, -2.1, -82.1, 7.4, 3.8, ?
